Screening data: PubChem, Vanderbilt University
GIRK2 act – opens human GIRK2 potassium channels; P48051; HEK293-GIRK2 thallium flux, Thallos fluorescence; calls only for hits at 25 µM; 63,000 tested, 0.05% active;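 active = among the strongest 0.2% of first-round signals and kept after retests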;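 note: first round at about 10 µM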
Target sequence (P48051 whole entry, looked up): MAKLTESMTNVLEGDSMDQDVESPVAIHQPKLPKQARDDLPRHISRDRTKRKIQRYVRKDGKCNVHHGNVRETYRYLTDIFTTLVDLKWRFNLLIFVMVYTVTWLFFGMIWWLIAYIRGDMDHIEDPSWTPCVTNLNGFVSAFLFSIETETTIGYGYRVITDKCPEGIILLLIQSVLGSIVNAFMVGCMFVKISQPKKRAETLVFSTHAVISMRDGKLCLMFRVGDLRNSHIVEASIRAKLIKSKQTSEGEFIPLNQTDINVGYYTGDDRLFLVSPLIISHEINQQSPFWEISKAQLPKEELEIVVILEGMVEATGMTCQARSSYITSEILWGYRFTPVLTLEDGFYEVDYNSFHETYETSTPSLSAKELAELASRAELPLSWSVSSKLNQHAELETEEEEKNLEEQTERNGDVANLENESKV
Calls only; i = inactive. These rows are one share of the data; count on the stated rates, not on these rows.

SMILES	GIRK2 act
Cc1cc(C)n(-c2nc(CCNS(=O)(=O)Cc3cccc(F)c3)cs2)n1	i
Cn1nc(C(=O)Nc2ccc(S(N)(=O)=O)cc2)ccc1=O	i
CCOc1ccc(NC(=O)CSc2nccc(N3CCN(c4ccccc4OC)CC3)n2)cc1	i
O=C(CCSc1ccccc1)N1CC(c2nc(-c3ncccn3)no2)C1	i
CS(=O)(=O)N1CCN(c2ccc(-c3ccc(Cl)cc3)nn2)CC1	i
NC(=O)c1ccc(NC(=O)CCCSc2ccc(NC(=O)C3CC3)nn2)cc1	i
Cc1cccc2sc(N(CC3CCCO3)C(=O)Cc3ccc(S(C)(=O)=O)cc3)nc12 (centres undefined)	i
CC(O)(CNC(=O)C(=O)NCc1ccc(F)cc1)c1ccc2c(c1)OCO2 (centres undefined)	i
CCOc1ccc(OCC(=O)Nc2cc(C)nn2-c2nc3ccccc3s2)cc1	i
O=C(Cn1nc(-c2cccs2)c2sc(N3CCOCC3)nc2c1=O)NCc1ccco1	i
COc1cccc(CC(=O)Nc2ccc(Cn3cnc(C(=O)Nc4ccc(Cl)cc4)c3)cc2)c1	i
CCc1cccc2sc(N(Cc3ccncc3)C(=O)CCCS(=O)(=O)c3ccccc3)nc12	i
CCOCC(=O)NCC#CCOc1ccc2c(c1)OCO2	i
CC(NC(=O)c1ccccc1)C(=O)NC1=NCCS1 (centres undefined)	i
O=C(CCCc1ccccc1)N1CCOC2(CCOCC2)C1	i
Cc1ccc(Cn2c(NCC(=O)O)nc3c2c(=O)n(C)c(=O)n3C)cc1	i
CCN(CC)c1ccc(C2=C(Cl)C(=O)c3ncccc3C2=O)cc1	i
Cc1cc(C)n(CC2CCN(C(=O)NC(c3ccccc3)c3ccccc3)CC2)n1	i
CC(C)(C)OC(=O)N1CCN(CCNC(=O)c2cccc(C#N)c2)CC1	i
O=C(/C=C/c1ccco1)N1CCC(Oc2ccc(C(F)(F)F)cn2)CC1	i
Cn1nnnc1SCC(=O)N1CCN(c2ccc(-c3ccco3)nn2)CC1	i
CC(Sc1nnnn1-c1ccccc1Cl)C(=O)Nc1nccs1 (centres undefined)	i
O=C(NCC1COC2(CCCCC2)O1)C(=O)Nc1cc2c3c(c1)CC(=O)N3CCC2 (centres undefined)	i
CC(Cc1ccco1)NC(=O)c1cc(=O)c2ccccc2o1 (centres undefined)	i
CC(=O)c1cccc(NC(=O)CN2CCN(c3ccc4c(c3)OCO4)C2=O)c1	i
O=C(NCc1ccccc1)Nc1nnc(-c2ccco2)o1	i
COc1ccc2nc(CN3CCN(CC(=O)Nc4ccc5c(c4)OCCO5)CC3)[nH]c2c1	i
CCc1cccc(NC(=O)CSc2ncc(S(=O)(=O)c3ccc(C(C)(C)C)cc3)c(=O)[nH]2)c1	i
CCn1cc(C(=O)NCCc2ccc(Cl)cc2)c(S(=O)(=O)N2CCSCC2)n1	i
COc1ccc(CCNC(=O)c2nnn(-c3ccc(C)cc3)c2-c2cccnc2)cc1OC	i
O=C(CC1Sc2ccc(C(F)(F)F)cc2NC1=O)Nc1cc([N+](=O)[O-])ccc1Cl (centres undefined)	i
O=C(Nc1ccc2c(c1)Cc1ccccc1-2)C1COCC(=O)N1Cc1ccccc1 (centres undefined)	i
COc1ccc(/C=C/C(=O)O[C@@H]2[C@@H](O)[C@@H](O)[C@H](O[C@H]3[C@@H]4C=CO[C@@H](O[C@@H]5O[C@H](CO)[C@@H](O)[C@H](O)[C@H]5O)[C@@H]4[C@@]4(CO)O[C@@H]34)O[C@H]2C)cc1	i
COc1ccccc1CNC(=O)c1[nH]c2ccccc2c1NC(=O)c1ccc(Cl)cc1	i
O=C1c2oc3ccccc3c(=O)c2C(c2cccc([N+](=O)[O-])c2)N1CCCN1CCOCC1 (centres undefined)	i
COc1cc(S(=O)(=O)NCc2cccnc2)c(OC)cc1C	i
COc1ccc2c(c1OC)C(=O)OC2CC(=O)c1cc(O)cc(O)c1 (centres undefined)	i
CCOC(=O)N1CCN(C(=O)c2cn(-c3ccc(C)cc3)nn2)CC1	i
O=C(Nc1nccs1)C1CCN(C(=O)c2cc(C3CC3)on2)CC1	i
CCOC(=O)c1ccc(NC(=O)CN2CCC3(CC2)N=C(c2ccc(C)cc2)C(=O)N3)cc1	i
Cc1ccccc1-n1ncc2c1ncn1nc(-c3ccncc3)nc21	i
O=C(NCc1ccsc1)C(=O)NCC1CCCO1 (centres undefined)	i
COc1ccc(OCC(=O)NCCn2ncccc2=O)cc1	i
O=C1OC2CC1N(C(=O)Cn1cnc3ccccc31)C2 (centres undefined)	i
COc1ccc(N2CCN(S(=O)(=O)CCCNC(=O)c3cccc(F)c3)CC2)cc1	i
COc1ccc(Cn2nc3c(S(=O)(=O)N4CCCCCC4)cccn3c2=O)cc1F	i
O=C(CSc1nnc(-c2cccnc2)o1)Nc1cccc(C(F)(F)F)c1	i
O=C(NCCC(O)c1ccccc1)C1(c2cccs2)CCCC1 (centres undefined)	i
Cc1noc(-c2ccc(N3CCCC(C(=O)Nc4ccc(F)cc4F)C3)nc2)n1 (centres undefined)	i
Cc1c(Cl)cccc1NC(=O)Cn1nc2c(Oc3ccc(Cl)cc3)nccn2c1=O	i
COc1ccc(C(=O)NCc2ccco2)nn1	i
Cc1n[nH]c(C)c1S(=O)(=O)NC(C)Cc1ccco1 (centres undefined)	i
CCN1C(=O)c2cc(NC(=O)c3cc(-c4cc(OC)ccc4OC)nn3C)ccc2Oc2ccccc21	i
O=C(NCC(O)C1CCCCC1)c1ccc2c(c1)OCO2 (centres undefined)	i
CCOc1nn(CC)cc1C(=O)Nc1nnc(SCC(=O)Nc2ccc3c(c2)OCCO3)s1	i
CC(C(=O)N1CCN(c2cc(-c3ccccc3)ncn2)CC1)n1nc(-c2cccs2)ccc1=O (centres undefined)	i
COc1cccc2sc(N(C)CC(=O)Nc3cccc(NS(C)(=O)=O)c3)nc12	i
O=C(Nc1nccs1)c1ccc(CSc2nc3ccccc3s2)cc1	i
Cc1nc(-c2ccc(N3CCN(S(=O)(=O)c4cccs4)CC3)nc2)no1	i
CC(Oc1ccccc1)C(=O)NCCCS(=O)(=O)N1CCN(c2ncccn2)CC1 (centres undefined)	i

Later entries.
SMILES	GIRK2 act
Cc1cc(=O)n(CC(=O)NCc2ccco2)c(N2CCOCC2)n1	i
COC(=O)c1ccc(S(=O)(=O)N2CC(Oc3nc4c(Cl)cccc4s3)C2)cc1	i
O=C(Cn1cnc2c([nH]c3ccccc32)c1=O)Nc1ccc(OC(F)(F)F)cc1	i
COCCNC(=O)Cc1ccc(-n2c(=O)c3ccccc3n(Cc3cc(C)ccc3C)c2=O)cc1	i
CCN1CCCc2cc(CCNC(=O)C(=O)Nc3cccc(C)c3)ccc21	i
Cc1cc2oc3c(c(=O)c2cc1C)C(c1ccccc1)N(c1nccs1)C3=O (centres undefined)	i
Cc1cc(C)n(CC(=O)Nc2ccc3c(c2)OCCO3)c(=O)c1C#N	i
O=C(NCC(O)c1ccoc1)C1(c2cccs2)CCCC1 (centres undefined)	i
COC(=O)c1ccc(C2c3c(oc4ccccc4c3=O)C(=O)N2C)cc1 (centres undefined)	i
CCn1cc(NC(=O)N2CCCc3ccccc32)c2ccccc21	i
Cc1ccc(NC(=O)COc2cc(C)nc(N3CCCC(C)C3)n2)c(Cl)c1 (centres undefined)	i
COc1ccc(Cl)cc1C(=O)NCC1CCN(C2CCCC2)CC1	i
O=C(c1ccccc1)N1CCCc2cc(NS(=O)(=O)c3ccc(F)cc3)ccc21	i
CCCn1c(C(=O)Nc2ccc(C)c(Cl)c2)cc2c(=O)n(C)c(=O)n(C)c21	i
Cc1ccc(CNc2oc(-c3ccc(S(=O)(=O)N4CCOCC4)cc3)nc2C#N)cc1	i
O=C(NCc1cc(-c2cccs2)n(C2CCCC2)n1)NCc1cccs1	i
COc1ccc(C(=O)Nc2ccc(C)c(N3CCCC3=O)c2)cc1OC	i
O=C(NCc1nc2ccccc2[nH]1)c1cc(-c2ccc(F)cc2)c[nH]1	i
COc1ccc2nc(-c3ccc(C)c(NC(=O)Nc4ccc(C)cc4C)c3)cn2n1	i
COc1ccc(S(=O)(=O)NCCc2nc(-c3cccs3)cn2C)cc1C	i
COCC1OC(OC2OC(=O)C(Cc3ccccc3)=C2c2ccccc2)C(NC(C)=O)C(O)C1O (centres undefined)	i
Cc1nc(-c2nnn(-c3ccc(F)cc3)c2C)sc1C(=O)NCc1ccco1	i
O=C(O[C@H]1CN[C@H](C#Cc2cc3ncnc(Nc4ccc(OCc5cccc(F)c5)c(Cl)c4)c3s2)C1)N1CCOCC1	i
O=C(NCC1CCN(Cc2ccccc2)CC1)c1cccc(Cl)c1	i
COc1ccc(NC(=O)c2cn(Cc3ccc(NC(=O)c4ccc(C)c(C)c4)cc3)cn2)cc1	i
COc1ccc(NC(=O)c2cn(-c3cc(N4CCSCC4)ncn3)cn2)cc1	i
CC(=O)c1cccc(-n2c(C)c(C)n3c4c(=O)[nH]c(=O)n(C)c4nc23)c1	i
CC(=O)c1ccc(NC(=O)CNS(=O)(=O)c2ccc(C(C)(C)C)cc2)cc1	i
CCC(NC(=O)c1nnn(-c2ccccc2OC)c1-c1ccccn1)c1cccs1 (centres undefined)	i
O=C(c1ccc2ncsc2c1)N1CCCC(c2nnc(-c3cccs3)o2)C1 (centres undefined)	i
O=C(NCCN1CCN(C(=O)c2ccsc2)CC1)c1cc(-c2cccs2)[nH]n1	i
COc1ccccc1C(=O)NC1CC(=O)N(c2ccccc2)C1 (centres undefined)	i
O=C(Cc1c(F)cccc1Cl)Nc1cc(N2CCCC2)ncn1	i
COc1ccc(Cl)cc1C(=O)Nc1cnc(-n2nc(C)cc2C)nc1	i
O=C1CC(c2ccccc2)Oc2cc(O)c(O)c(O)c21 (centres undefined)	i
O=C(Nc1ccc2c(c1)C(=O)NCC2)c1cccc(Br)c1	i

A different layout for some results above:
SMILES,GIRK2 act
O=C(NCCN1CCN(C(=O)c2ccsc2)CC1)c1cc(-c2cccs2)[nH]n1,i
COc1ccccc1C(=O)NC1CC(=O)N(c2ccccc2)C1 (centres undefined),i
O=C(Cc1c(F)cccc1Cl)Nc1cc(N2CCCC2)ncn1,i
COc1ccc(Cl)cc1C(=O)Nc1cnc(-n2nc(C)cc2C)nc1,i
O=C1CC(c2ccccc2)Oc2cc(O)c(O)c(O)c21 (centres undefined),i

(listing goes on)
SMILES	GIRK2 act
COc1cn(C)c(C(=O)Nc2ccc3c(c2)OCCO3)cc1=O	i
Cc1oc(-c2ccc([N+](=O)[O-])cc2Cl)cc1C(=O)O	i
Cc1noc(C)c1CNc1ncc2c(=O)n(Cc3ccccc3)c(=O)[nH]c2n1	i
COC(=O)Cn1c(=O)c2c(nc3n(Cc4ccco4)c(C)c(C)n23)n(C)c1=O	i
O=C(C(c1ccccc1)c1ccccc1)N1CCC(COCc2ccccc2)CC1	i
CN(C)C(CN)c1ccco1 (centres undefined)	i
O=C(c1cncc(Br)c1)N1CCN(Cc2csc(-c3ccccc3)n2)CC1	i
Cn1c(SCC(N)=O)nc2c1c(=O)n(Cc1ccccc1)c(=O)n2C	i
NS(=O)(=O)c1ccc(CCNc2cnc3cc(S(=O)(=O)N4CCCCC4)ccc3n2)cc1	i
CCOC(=O)CCC(=O)NCCn1nc(C2CC2)n(-c2ccccc2)c1=O	i
Cc1noc(-c2ccc(N3CCCC(C(N)=O)C3)nc2)n1 (centres undefined)	i
CCOCCn1c(=O)c2c(nc(-n3nc(C)cc3C)n2Cc2cccc(C)c2)n(C)c1=O	i

For convenience, 4 of the compounds above:
SMILES	GIRK2 act
CN(C)C(CN)c1ccco1 (centres undefined)	i
O=C(c1cncc(Br)c1)N1CCN(Cc2csc(-c3ccccc3)n2)CC1	i
Cn1c(SCC(N)=O)nc2c1c(=O)n(Cc1ccccc1)c(=O)n2C	i
NS(=O)(=O)c1ccc(CCNc2cnc3cc(S(=O)(=O)N4CCCCC4)ccc3n2)cc1	i

A draw from above in order of heavy-atom count, lowest first:
SMILES	GIRK2 act
Cn1nc(C(=O)Nc2ccc(S(N)(=O)=O)cc2)ccc1=O	i
COc1ccc(Cl)cc1C(=O)NCC1CCN(C2CCCC2)CC1	i
COc1ccc2c(c1OC)C(=O)OC2CC(=O)c1cc(O)cc(O)c1 (centres undefined)	i
Cc1nc(-c2ccc(N3CCN(S(=O)(=O)c4cccs4)CC3)nc2)no1	i
COc1ccc(NC(=O)c2cn(Cc3ccc(NC(=O)c4ccc(C)c(C)c4)cc3)cn2)cc1	i

Going on with the list.
SMILES	GIRK2 act
COc1cccc(C2=NN(C(C)=O)C(c3cn(-c4ccccc4)nc3-c3cccs3)C2)c1 (centres undefined)	i
CN(C)S(=O)(=O)c1ccc(C(=O)NC2CCCC(OC(=O)Nc3ccccc3)C2)cc1 (centres undefined)	i
CSc1ccccc1C(=O)N1CCN(C(=O)C2CC2c2ccc3c(c2)OCO3)CC1 (centres undefined)	i
COc1cc(NC(=O)Cn2c(C)cc(C)c(C#N)c2=O)cc(OC)c1	i
COc1ccc(S(=O)(=O)N2CCCCC2)cc1C(=O)Nc1ccc(S(C)(=O)=O)cc1	i
Cc1ccc(NC(=O)Cn2nc(C3CCN(S(C)(=O)=O)CC3)n(C)c2=O)cc1Cl	i
Cc1cc(C)n(-c2ccc(C(=O)N3CCN(c4ccc(C(F)(F)F)cn4)CC3)nn2)n1	i
Cc1cc(S(=O)(=O)NCC2(c3cccs3)CCOCC2)ccc1F	i
CCOc1cn(C)c(C(=O)NCCc2ccccc2)cc1=O	i
Cc1cccc(N2C(=O)CC(Sc3ncccc3C(=O)O)C2=O)c1C (centres undefined)	i
CC(CCc1ccccc1)NC(=O)C1CCN(c2cnc3ccccc3n2)CC1 (centres undefined)	i
O=C(Nc1cccc(C(F)(F)F)c1)N1CCOC2(CCOCC2)C1	i
CCCc1nc2oc3ccccc3c(=O)c2c(=O)n1Cc1ccccc1	i
COc1ccccc1N1COc2ccc3c(c2C1)O/C(=C\c1cc(OC)c(OC)c(OC)c1)C3=O	i
COC(=O)c1ccccc1NC(=O)CSc1nccnc1N1CCN(c2ccc(F)cc2)CC1	i
